Mtb hypoxia rep = Mtb hypoxia fluorescent reporter inhibition | actives 0.1% (n = 300,000) | fluorescence inhibition, % (concentration not given with the values) | M. tuberculosis hypoxia-regulated fluorescent reporter, fluorescence;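 active means 35 to 45% if threefold the growth effect, above 45% if 1.5-fold the growth effect; inactive means the rest, general growth blockers included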;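 further: wells of about 50 µL received 100 nL stock; 0% = vehicle wells and 100% = reference inhibitor wells; whole bacteria with a GFP reporter of the hypoxia response; strong numbers were not always called active; many hits fall short of the cut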
PrP UTR inh = suppresses PrP 5' UTR mRNA reporter expression; AID 488862; inhibition, % (no concentration beside the values); cell-based PrP 5' UTR mRNA reporter, plate reader; actives 0.35% (n = 340,000);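 active means every replicate at 50% or more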;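 further: 0 = median of the neutral control wells; tested in H4 reporter cells; numbers are from one replicate; inactives centre near -14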
RN4220 kill = kills Staphylococcus aureus RN4220. S. aureus RN4220 growth, OD600, 16 h. inhibition, % (test concentration not listed). actives 0.33% (n = 330,000). AID 1259311;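 active means z-score of -3 or lower and OD600 up to 0.18 on both plates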;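 further: plate controls were untreated cells for no effect and reference antibiotic for full effect; stock transfer was 100 nL into about 80 µL; one replicate is shown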
BJeLR viability = kills HRASV12-expressing BJeLR cells; BJeLR (HRASV12) viability, CellTiter-Glo ATP luminescence, 48 h; reference of the scale not given here; inhibition, % (no concentration beside the values); actives 0.17% (n = 300,000); AID 1554;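 active means replicate mean above 50%; inconclusive means above 50% but judged a plate artefact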;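 further: 50 nL library stock added to about 25 µL; numbers are from one replicate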
ugtP null kill = compounds lethal to S. aureus RN4220 ugtP deletion mutant | OD600 growth, 16 h; some inactives read as strong as hits | growth inhibition, % (test concentration not listed) | actives 0.54% (n = 330,000);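 active means z-score under -3 and OD600 up to 0.15 on both plates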;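 further: plate controls were untreated wells for no effect and antibiotic for full effect; wells of about 80 µL received 100 nL stock; the first replicate is given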
Autofluor counter = flagged as autofluorescent in microsphere protease counterscreen; compound autofluorescence counterscreen, microsphere flow cytometry; stronger effect = higher value; fluorescence intensity (concentration not given with the values); actives 3.1% (n = 360,000); AID 624483;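 active means at least 3 SD above the mean of all compounds, about 16000 in these data; inconclusive means too few beads counted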;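 further: 100 nL of 1 mM stock went into each well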
Mtb hypoxia rep growth = second read-out of Mtb hypoxia rep, no call of its own (marks repeat the call); growth inhibition, %; measured here: M. tuberculosis growth (absorbance);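 0% = vehicle and 100% = reference antibiotic; read after six days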
An asterisk follows results filed as active; ? = inconclusive; · = not tested or not shown.

Start of the data: the first 3 compounds, ahead of the listing:
SMILES	Mtb hypoxia rep	Mtb hypoxia rep growth	PrP UTR inh	RN4220 kill	BJeLR viability	ugtP null kill	Autofluor counter
Cn1c(C(=O)O)ccc1S(=O)(=O)N1CCCCCC1	3.5	-7.4	-36.9	1.2	-6.0	3.5	6078
CC(=O)c1cccc(NC(=O)CSc2nc(C3CC3)nc3ccccc23)c1	18.2	10.6	-3.2	4.8	-0.8	-1.9	3867
CCN(CC)CC#CC(OC)(c1ccccc1)c1ccccc1	8.2	-14.3	-26.6	10.3	-3.5	10.8	4276

The listing, from the first entry:
SMILES	Mtb hypoxia rep	Mtb hypoxia rep growth	PrP UTR inh	RN4220 kill	BJeLR viability	ugtP null kill	Autofluor counter
Cn1c(C(=O)O)ccc1S(=O)(=O)N1CCCCCC1	3.5	-7.4	-36.9	1.2	-6.0	3.5	6078
CC(=O)c1cccc(NC(=O)CSc2nc(C3CC3)nc3ccccc23)c1	18.2	10.6	-3.2	4.8	-0.8	-1.9	3867
CCN(CC)CC#CC(OC)(c1ccccc1)c1ccccc1	8.2	-14.3	-26.6	10.3	-3.5	10.8	4276
Cc1ccsc1C1NC(=O)c2c(sc3c2CCCC3)N1 (stereo not drawn)	4.2	8.7	-108.8	6.2	-0.2	-13.5	10215
CCN(CC)C(=S)Sc1c(-c2ccccc2)c2cc(Cl)ccc2[nH]c1=O	7.0	4.7	-15.6	13.5	-9.4	4.6	3544
O=C(COC(=O)c1cccs1)Nc1nc(-c2ccccc2)cs1	4.7	10.0	-5.1	0.6	24.2	3.6	7439
Cc1nn(Cc2ccc([N+](=O)[O-])cc2)c(=O)n1N(C)c1ncc(C(F)(F)F)cc1Cl	·	·	-27.8	-0.3	-1.2	9.3	4593
COc1ccc(NC(=O)N(C)CC2Oc3ccc(NC(=O)Nc4ccc5c(c4)OCO5)cc3C(=O)N(C(C)CO)CC2C)cc1 (stereo not drawn)	2.1	9.9	·	3.3	·	1.2	·
COC(=O)c1c(C)nc2ccccc2c1-c1ccccc1	-10.9	0.1	-11.3	-1.1	-8.8	-2.9	5660
COc1ccc(NC(=O)C(=O)NNC(=O)c2cccs2)c(OC)c1	·	·	-16.6	-4.9	-4.9	0.1	4448
COc1ccc(CC(=O)Oc2ccc(C#N)cc2)cc1	1.4	-5.5	-48.5	1.0	0.5	3.8	4278
O=C(COC(=O)c1cncc(Br)c1)Nc1ccc(F)c(F)c1F	-0.2	-5.4	-7.8	1.4	·	9.5	5941
COc1ccc(C2CC(c3ccccc3)=NN2C(=O)COC(=O)c2ccc(S(C)(=O)=O)cc2)cc1 (stereo not drawn)	10.9	2.9	-17.3	3.8	1.1	7.9	·
CC(=NNC(=O)c1cc(-c2ccc(O)cc2)nc2ccccc12)c1cccnc1	10.3	-3.4	·	3.3	·	8.0	·
OCc1c(Cl)nc2ccccn12	0.4	5.5	-8.3	-0.8	1.8	-6.0	4180
Cc1c(N/N=C(\C#N)C(=O)c2ccccc2)c(=O)n(-c2ccccc2)n1C	15.1	1.3	27.9	19.3	15.5	14.2	2382
Cc1ccc(CNC(=O)CCc2nnc3ccc(N4CCC5(CC4)OCCO5)nn23)cc1	13.6	1.4	-26.0	3.3	-3.3	5.0	5621
Cc1cc2cc(CNC(=O)Nc3ccc(Cl)c(Cl)c3)ccc2n1C	4.0	5.7	-20.0	-16.1	-23.4	-5.6	2226
COc1cc(OC)cc(C(=O)NNC(=O)c2cc3c(s2)CCCC3)c1	10.0	5.5	0.7	8.2	13.0	17.5	4061
COc1ccc(OCCNc2cc(N3CCCCC3)ccc2[N+](=O)[O-])cc1	3.1	11.4	-15.0	0.8	23.0	3.9	2997
COCCN(C(=O)Cc1cccs1)C(C(=O)NC1CCCC1)c1ccc(OC)c(OC)c1 (stereo not drawn)	-5.4	-3.8	-26.4	-1.9	4.5	2.3	2251
CCOC(=O)C(NC(C)=O)C(=O)Nc1ccc(OC)cc1 (stereo not drawn)	10.1	6.5	-13.5	4.4	-8.9	2.2	2563
CCOc1ccc(NS(=O)(=O)c2ccc(-c3cnc(C4CC4)o3)cc2)cc1	-1.6	6.2	-9.1	8.7	-10.4	-6.1	6053
NNC(=O)CCn1nnc2ccccc21	1.0	-0.3	-8.5	1.0	-3.3	1.5	5533
O=C1CC(c2ccc(Cl)cc2)CC(O)=C1C=NCCN1CCNCC1 (stereo not drawn)	-5.9	1.3	·	0.5	4.2	2.0	·
c1ccc(CCNCc2ccco2)nc1	2.6	0.6	-8.8	1.5	·	-0.9	3991
Cc1ccsc1/C=N/NC(=O)c1ccc(-n2cccc2)cc1	·	·	-42.0	·	-7.7	·	2022
O=C(NN=CC1C(=O)NC(=S)N(c2ccccc2)C1=O)c1ccc(O)cc1 (stereo not drawn)	5.1	4.5	·	3.0	·	5.1	·
CCOc1cc(NC(=O)C2CC2)c(OCC)cc1NC(=O)CCn1nnc2ccccc21	9.7	-0.7	-6.6	1.4	3.8	2.3	2043
COc1cccc(C(=O)OC2CCN(C)CC2)c1	-4.3	1.5	-14.5	4.2	-7.8	13.9	3696

Molecules listed so far containing a cyano group (2):
SMILES	Mtb hypoxia rep	Mtb hypoxia rep growth	PrP UTR inh	RN4220 kill	BJeLR viability	ugtP null kill	Autofluor counter
COc1ccc(CC(=O)Oc2ccc(C#N)cc2)cc1	1.4	-5.5	-48.5	1.0	0.5	3.8	4278
Cc1c(N/N=C(\C#N)C(=O)c2ccccc2)c(=O)n(-c2ccccc2)n1C	15.1	1.3	27.9	19.3	15.5	14.2	2382

The listing continues.
SMILES	Mtb hypoxia rep	Mtb hypoxia rep growth	PrP UTR inh	RN4220 kill	BJeLR viability	ugtP null kill	Autofluor counter
COC(=O)C1=NN[C@H](C(=O)OC)[C@H]1c1ccccc1	-2.5	9.2	-7.3	4.7	-3.5	7.1	1945
Nc1nc(-c2cc3ccccc3o2)cs1	-14.7	3.9	-82.5	9.6	5.7	0.7	3362
CCCNS(=O)(=O)c1ccc(N2CCCC2=O)c([N+](=O)[O-])c1	1.3	-3.1	-18.9	-1.5	-2.5	3.2	2453
CCCC(=O)NC(=S)Nc1ccccc1OC	3.0	0.9	-7.3	-0.4	-0.5	3.2	3286
CN(C)S(=O)(=O)c1ccc(NC(=O)COC(=O)CC2CC3CCC2C3)cc1 (stereo not drawn)	11.2	-0.5	-25.2	2.6	0.2	4.7	3999
COc1ccc(C)cc1NC(=O)Nc1ccc2c(c1)CCC2	-3.9	7.9	-5.7	-7.7	-0.3	26.1	5846
O=C(C1CCC(Cn2c(=S)[nH]c3ccccc3c2=O)CC1)N1CCN(c2ccccn2)CC1 (stereo not drawn)	-4.0	-2.8	-4.6	-2.5	23.9	1.9	4929
O=C(c1ccc(C(F)(F)F)cc1)N1CCN(c2ccc(N3CCOCC3)nn2)CC1	·	·	4.2	·	-12.6	·	?
S=c1[nH]nc(COc2ccc(Cl)cc2)n1-c1ccc(Cl)cc1	3.0	-0.1	-1.8	18.9	-25.0	-1.9	4560
Cc1cc(C)c[n+](-c2[nH]c(=O)sc2/C=N/N=C(\N)[S-])c1	·	·	-7.2	·	-1.4	·	3311
CCCc1ccc(C(=O)NNc2cccc(C)c2)cc1	11.4	-0.3	-13.9	0.5	-10.0	23.8	6035
CC(C)OCCCNC(=O)Cn1ncc2c(=O)oc3ccccc3c21	·	·	-10.5	7.1	-7.9	0.0	3089
COc1ccc(N2CCN(C(CNC(=O)C(=O)NCc3ccc4c(c3)OCO4)c3ccco3)CC2)cc1 (stereo not drawn)	-10.0	7.1	-17.2	-6.2	30.3	-9.3	6229
COc1ccnc2c1c(=O)n(Cc1cccc(Cl)c1)c(=O)n2C	2.4	3.4	-8.4	2.6	-3.0	4.6	5204
O=S(=O)(c1cccc2nsnc12)N1CCc2ccccc21	6.6	8.7	-3.0	7.1	7.8	-0.7	8350
Clc1ccc(CSc2cc3c(nn2)-c2ccccc2CC3)cc1	·	·	4.9	-6.9	9.1	12.3	2747
O=C(CCC(=O)N/N=C/c1ccccc1O)NCc1ccccc1	·	·	-7.1	·	1.2	·	9772
CC(C)(C)c1nc(CN2CCCCC2)cc(CN2CCCCC2)c1O	·	·	-1.9	0.6	1.5	-0.1	4682
CCc1nnc(NS(=O)(=O)c2ccc(N/C=C(\C=O)c3nc4cc(Cl)ccc4o3)cc2)s1	19.9	16.1	-3.3	-1.0	-1.2	-11.2	3008
CCN(CC)C(=O)c1ccc(S(=O)(=O)NCc2cccnc2)cc1	7.7	-1.5	-18.2	0.7	13.2	5.4	4358
COC(=O)c1ccc(C(=O)OC)c(NC2=NS(=O)(=O)c3ccccc32)c1	-3.3	0.5	2.2	-0.1	4.6	-1.1	23866*
COc1cccc(/C=N/Nc2nc3ccccc3n3cnnc23)c1	·	·	-10.6	·	-2.9	·	2476
CC1CCN(C(c2ccc(N(C)C)cc2)c2nnnn2Cc2ccc(F)cc2)CC1 (stereo not drawn)	·	·	-8.1	3.8	-14.2	-3.9	3187
O=C(Cn1cnc2c(OCc3ccccc3)ncnc21)NCc1ccccc1	-4.8	-18.3	-4.2	-1.5	·	3.5	2907
CCOc1ccc(NC(=O)CN2C(=O)CSc3ccc(S(=O)(=O)N4CCOCC4)cc32)cc1	6.1	3.4	-9.5	0.2	-7.9	1.4	5508
O=C(CCCc1c[nH]c2ccccc12)Nc1ccc(S(=O)(=O)Nc2ncccn2)cc1	10.8	11.3	-21.7	-0.5	-0.5	-0.9	5858
CC(C)CNS(=O)(=O)c1cc2c3c(c1)CCC(=O)N3CCC2	6.3	-4.1	2.1	6.6	2.5	9.8	4101
COc1ccc(Cc2ccccc2C(=O)O)cc1	-2.8	8.0	-40.1	2.0	·	3.6	3086
O=C(CN1C(=O)CSc2ccc(S(=O)(=O)N3CCOCC3)cc21)NCCCN1CCc2ccccc2C1	-5.8	3.7	-25.7	0.6	1.0	-0.5	4546
COC(=O)C1CCN(C(=O)COC(=O)c2ccc(=O)n(Cc3ccccc3)n2)CC1	2.8	8.8	-23.4	-1.4	0.3	-2.9	?
O=C(COC(=O)c1ccc2c(c1)OCCO2)Nc1ccc(F)cc1F	6.0	6.6	-70.5	3.0	·	4.1	3630
CC1CCN(S(=O)(=O)c2ccc3ncn(CC(=O)N4CCN(C)CC4)c(=O)c3c2)CC1	15.5	-1.8	-11.7	4.6	1.2	10.2	3240
COCc1ccc(C(=O)N2CCCC(Nc3ccc(F)c(F)c3)C2)s1 (stereo not drawn)	-9.4	-7.0	-53.1	-3.5	1.3	-8.6	6077
C/C(N)=C(/C#N)C(=O)COC(=O)c1cccc(O)c1	8.2	-3.1	4.3	4.3	-3.9	7.0	4406
CC1Sc2ccc(S(=O)(=O)CCC(=O)N(C)Cc3ccco3)cc2NC1=O (stereo not drawn)	1.1	-2.2	-14.6	2.4	0.7	8.5	5251
Cc1ccc(C(=O)NN2CC(O)=C(c3nc(-c4cccc([N+](=O)[O-])c4)cs3)C2=N)cc1	-4.3	-5.4	-6.2	2.6	4.6	-2.8	3180
CNS(=O)(=O)c1ccc(C(=O)NCC(=O)NCCc2ccc3c(c2)OCCO3)cc1	4.3	3.4	-37.1	2.8	·	11.3	9134
O=S(=O)(c1ccc(N2CCN(Cc3ccccc3)CC2)nc1)N1CCCC1	7.8	4.8	-16.6	1.6	·	1.9	3993
O=c1ccc(NS(=O)(=O)c2ccccc2)cn1Cc1ccc(Cl)c(Cl)c1	2.0	4.0	-23.8	15.9	12.1	-16.8	4191
Cc1cccc(NC(=O)C2CC(O)CN2C(=O)Oc2ccccc2)c1 (stereo not drawn)	11.2	11.4	3.6	2.7	2.3	16.3	3525
CCOc1cc(C2C3=C(CC(C)(C)CC3=O)N(CCCOC)C3=C2C(=O)CC(C)(C)C3)ccc1O	18.9	9.4	-17.6	-1.4	0.9	6.8	3399
COc1cccc(NC(=O)CN(C)C(=O)c2ccc(S(=O)(=O)Nc3ccccc3F)cc2)c1	-6.6	3.9	-1.8	0.3	·	1.0	5502
S=C(Nc1ccccc1)N(CCN1CCOCC1)Cc1cccc(Cl)c1	3.4	3.4	-18.3	20.1	12.7	3.5	4913
Cc1nc2ccccc2c(=O)n1-c1ccc(C(=O)O)cc1	3.9	2.5	-2.8	0.6	-5.3	2.4	4624
COc1nn(CC(=O)N2N=C(C(F)F)CC2(O)C(F)F)cc1[N+](=O)[O-] (stereo not drawn)	-9.5	4.5	1.7	-2.2	-3.0	-4.4	23495*

An excerpt from above, reduced to PrP UTR inh and RN4220 kill:
SMILES	PrP UTR inh	RN4220 kill
Cc1nc2ccccc2c(=O)n1-c1ccc(C(=O)O)cc1	-2.8	0.6
COc1nn(CC(=O)N2N=C(C(F)F)CC2(O)C(F)F)cc1[N+](=O)[O-] (stereo not drawn)	1.7	-2.2
